NS1 inh = influenza NS1 inhibition; S. cerevisiae slowed by influenza A NS1, growth recovery by OD600; Potency, µM (highest dose often 46.1 µM), for inactives: top-dose activity, positive = more growth; hit rate 0.4% among 270,000; AID 2326; further: actives are rising curves; nearly all actives have a fitted effect of over 50% in size
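Recovery from NS1-induced slow growth read by OD600 in budding yeast switched to galactose assay medium (pH 6.0, -URA) at 1:100 dilution. Compound 23 nl per well; the matching strain lacking NS1 serves as control.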
SARS PLP yeast = inhibitors of SARS-CoV papain-like protease in yeast; S. cerevisiae expressing SARS-CoV PLpro, growth rescue; control for the full effect not named in the record; Potency, µM (series often up to 32.9 µM), for the others: at the top dose activity, positive = growth rescue; hit rate 0.19% among 330,000; AID 485353; further: 0% is about no effect; nearly all actives have a fitted effect of over 55% in size; growth read by luminescence after 48 h
LASV entry inh = Lassa virus entry inhibition | Potency, µM (top dose mostly 37.9 µM), inactives show top-dose activity change, negative = inhibition, most hits filed as inhibitors | AID 540256 | Lassa virus pseudotype entry inhibition, cell reporter; control for the full effect not named in the record | hit rate 1.2% among 300,000; active means well fitted inhibition curve with a large enough effect; inconclusive means small, poorly fitted or top-dose-only effect, or effect the other way; inactive means flat fitted curve, though single readings scatter; tested in HEK293 cells; further: on the % scale 0 is the no-effect control and ±100 the full control effect; nearly all actives have a fitted effect of over 50% in size; luciferase read-out
Cruzain inh noDet = inhibitors of Trypanosoma cruzi cruzain without detergent. P25779. purified cruzain, Z-FR-AMC fluorescence, no detergent. Potency, µM, for inactives: max response, negative = inhibition, actives largely listed as inhibitors. hit rate 2.3% among 200,000. AID 1476; active means well fitted curve in the direction sought with a large enough effect; inconclusive means small, poorly fitted or top-dose-only effect, or another doubt; inactive means no such curve, though single readings can be large; an effect the other way counts as inactive or inconclusive;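 further: plate controls were enzyme without inhibitor for no effect and buffer without enzyme for full effect; nearly all actives have a fitted effect of over 40% in size; top concentration of the series not given in the record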
Target sequence (P25779 123-467 limits assumed): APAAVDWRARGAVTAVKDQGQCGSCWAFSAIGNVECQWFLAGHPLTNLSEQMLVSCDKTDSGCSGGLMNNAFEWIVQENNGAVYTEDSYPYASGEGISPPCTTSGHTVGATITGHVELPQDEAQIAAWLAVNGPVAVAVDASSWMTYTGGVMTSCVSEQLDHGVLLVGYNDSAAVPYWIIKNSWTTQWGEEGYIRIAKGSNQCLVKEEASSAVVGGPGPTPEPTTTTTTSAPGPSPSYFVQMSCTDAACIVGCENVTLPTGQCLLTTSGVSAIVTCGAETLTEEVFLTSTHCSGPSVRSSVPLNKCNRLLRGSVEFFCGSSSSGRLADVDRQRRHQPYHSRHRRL
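Purified cruzain at 1.5 nM, pre-incubated 15 min with compound at room temperature in 100 mM sodium acetate pH 5.5, 5 mM DTT, 0.00005% Triton X-100. Reaction started with 2 uM Z-FR-AMC; AMC fluorescence increase over 60 s gives rate.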
MARV entry inh = Marburg virus entry inhibition | AID 540276 | hit rate 1.8% among 300,000 | Potency, µM (series often up to 37.8 µM), for inactives: at the highest dose activity change, negative = inhibition, actives largely listed as inhibitors | Marburg virus pseudotyped entry inhibition, cell reporter; control for the full effect not named in the record; about a third of the inactives were read at about 46 µM; active = well fitted inhibition curve with a large enough effect; inconclusive = small, poorly fitted or top-dose-only effect, or effect the other way; inactive = flat fitted curve, though single readings scatter; tested in HEK293 cells; about a fifth of its hits are not listed in these tables; further: on the % scale 0 is the no-effect control and ±100 the full control effect; luciferase read-out
Cruzain Triton = blocks cruzain activity in presence of Triton detergent. P25779. purified cruzain, Z-FR-AMC fluorescence, 0.01% Triton. Potency, µM, for the others: max response, negative = inhibition, hits mostly inhibitors. hit rate 0.43% among 200,000. AID 1478; active means well fitted curve in the direction sought with a large enough effect; inconclusive means small, poorly fitted or top-dose-only effect, or another doubt; inactive means no such curve, though single readings can be large; an effect the other way counts as inactive or inconclusive;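 further: plate controls were neutral wells for no effect and buffer without enzyme for full effect; nearly all actives have a fitted effect of over 40% in size; top concentration of the series not given in the record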
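Cruzain (1.5 nM) preincubated 15 min at RT with compound in 100 mM sodium acetate pH 5.5, 5 mM DTT, 0.01% Triton X-100. Reaction started with 2 uM Z-FR-AMC; AMC fluorescence (ex 360/em 450 nm) change over 60 s gave rate.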
RE007 growth inh = less growth of the S. pombe RE007 Vpr strain; hit rate 0.21% among 360,000; S. pombe RE007 Vpr strain, BacTiter-Glo ATP luminescence, 24 h; control for the full effect not named in the record; Potency, µM (series often up to 92.2 µM), without a hit: at the highest dose activity change, negative = less growth; AID 651644; active = well fitted falling curve with a large enough effect; inconclusive = small, poorly fitted or top-dose-only effect; inactive = no such curve, though single readings can be large or run the other way;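 further: on the % scale 0 is the no-effect control and ±100 the full control effect; nearly all actives have a fitted effect of over 50% in size; the assay follows cell death caused by Vpr and the record does not say whether a fall means rescue or toxicity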
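Fission yeast RE007 carrying one integrated HIV-1 vpr copy, seeded at OD 0.01 in PMG+AL medium with 23 nL pinned compound. Grown 24 h at 30 degrees; viability read by BacTiter-Glo luminescence after 5 min.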
StopGo reporter = FMDV 2A StopGo reporter, luciferase signal; AID 1159524; hit rate 1.2% among 410,000; Potency, µM (titrated, usually from 57.9 µM), for inactives: at the highest dose signal change, negative = less light; human cells with a luciferase reporter of 2A StopGo recoding; control for the full effect not named in the record; active = well fitted falling curve with a large enough effect; inconclusive = small, poorly fitted or top-dose-only effect; inactive = no such curve, though single readings can be large or run the other way; tested in HEK293T cells; further: on the % scale 0 is the no-effect control and ±100 the full control effect; nearly all actives have a fitted effect of over 45% in size; luciferase light after 4 h
Starred values were filed as active, the others as inactive; ? = inconclusive; · = not tested or not shown; [ ] = remark or other dose. Unless noted, the call rests on the fitted dose curve; in most records, active means well fitted rising curve with a large enough effect; inconclusive means small, poorly fitted or top-dose-only effect; inactive means no such curve, though single readings can be large or run the other way. Potency means the concentration at half of the fitted maximal effect. Not a hit list; overall some 4.8% were active at least once.

SMILES	NS1 inh	SARS PLP yeast	LASV entry inh	Cruzain inh noDet	MARV entry inh	Cruzain Triton	RE007 growth inh	StopGo reporter
O=C(CN1CCCCCC1)NN(Cc1ccccc1)c1ccccc1	-1%	1%	?	·	?	·	14%	-5%
Cc1n[nH]c(=S)n(/N=C/c2cccc([N+](=O)[O-])c2)c1=O	-5%	1%	16%	·	3%[46.1 µM]	·	11%	-8%
Cc1ccccc1OCC(=O)NNC(=O)Nc1ccc(Cl)cc1	-12%	3%	?	?	?	-3.2%	-3%	-3%
CC(=O)Nc1ccc(NC(=O)CCNC(=O)c2ccccc2Cl)cc1	4%	1%	26%[46.1 µM]	·	0%[46.1 µM]	·	-1%	9%
Clc1ccc(CO/N=C/c2cccs2)cc1	0%	0%	17%	·	7%[46.1 µM]	·	0%	-6%
CC1=C(C(=O)Nc2ccc(C)cc2C)C(c2cccc([N+](=O)[O-])c2)n2nc(C(=O)OC(C)C)nc2N1 (stereo not drawn)	11%	?	6%	?	?	1.1%	-5%	-8%
CS(=O)(=O)N1N=C(c2ccc(Br)cc2)CC1c1ccc2c(c1)OCO2 (stereo not drawn)	9%	-2%	?	-1%	?	-0.2%	18%	83%[activator]
Cc1cccc(C(=O)NCCCNC(=O)c2cccnc2)c1	5%	1%	-20%[46.1 µM]	·	-7%[46.1 µM]	·	-23%	6%
NCCN1CCN(CCN)CC1	-2%	-3%	1%	-9%	2%	2.3%	-8%	-19%
CN(CC(=O)Nc1ccccc1Br)C(=O)c1cccc(S(=O)(=O)N2CCc3ccccc32)c1	·	·	?	·	?	·	12%	-2%
Cc1cccc(N2CCN(C(=O)CCCCCn3c(=S)[nH]c4ccc(N5CCOCC5)cc4c3=O)CC2)c1C	16%	-1%	·	·	·	·	-8%	?
CCOC(=O)c1cc(CC)sc1NC(=O)c1ccc(N2C(=O)CCC2=O)cc1	-4%	5%	-24%	?	24%	-3.7%	10%	·
C=CCn1c(-c2cc3c(s2)CCC(CC)C3)n[nH]c1=S (stereo not drawn)	·	0%	?	·	10%[46.1 µM]	·	3%	20%
COc1cccc(NC(=O)CSc2nc3ccc(NC(=O)c4cccs4)cc3s2)c1	·	·	?	?	?	-3.6%	·	-22%
O=C(O)CCC(=O)Nc1ccccc1C(=O)N1CCN(c2ccc(Cl)cc2)CC1	1%	1%	?	·	21%[46.1 µM]	·	-8%	11%
CCCc1oc(C(=O)O)cc1CN1CCCC1	6%	4%	25%	-3%	17%	5.1%	-4%	·
Cc1ccc(-c2nc3ccccc3c(=O)n2-c2ccc(Br)cn2)cc1	-6%	-1%	2%	·	-19%	·	5%	-25%
Cc1ccc(C)c(C(=O)N2CCN(c3ncccn3)CC2)c1	-2%	-1%	·	·	·	·	-3%	0%
CCn1c(CNC(=O)C23CC4CC(CC(C4)C2)C3)nnc1SCC(=O)Nc1ccc(OC)cc1	·	·	-6%[46.1 µM]	29%	?	4.3%	·	-12%
CCN(CC(=O)Nc1ccc(Cl)c(S(=O)(=O)N(C)C)c1)Cc1nc2ccccc2c(=O)[nH]1	·	0%	2%	·	-18%	·	1%	?
Cc1nc(NCCc2ccc(Cl)cc2)c2nnn(Cc3ccccc3)c2n1	-3%	-6%	·	·	·	·	2%	-6%
CCOC(=O)N1CCN(C(=O)Cc2ccc(Cl)cc2)CC1	4%	-1%	0%	-2%	12%	7.0%	10%	-1%
Cc1cc(=O)oc2cc(OCC(=O)c3ccc4c(c3)NC(=O)CO4)ccc12	·	0%	?	·	?	·	-17%	-17%
Cc1c(C(=O)Nc2ccccc2C(=O)N2CCOCC2)cccc1[N+](=O)[O-]	23%	14%	12%	2%	?	1.5%	2%	-22%
CCN(CCO)Cc1csc2ccc(C(C)(C)C)cc12	-3%	8%	?	1%	?	-1.1%	9%	-19%
FC(F)(F)Oc1ccc(NC(=S)NCCCN2CCOCC2)cc1	·	4%	-27%	·	4%	·	1%	-12%
CCOc1ccc(S(=O)(=O)N2CCC(C(=O)NCC3CCCO3)CC2)cc1C (stereo not drawn)	-22%	1%	6%[46.1 µM]	·	?	·	4%	0%
CCn1ccnc1CN(C)Cc1nc(-c2ccccc2)no1	10%	1%	8%[46.1 µM]	·	?	·	-3%	22%
CCCc1ccc(OC(=O)c2cccs2)cc1	-2%	-5%	1%	-9%	28%	1.7%	9%	40%[activator]
CCCCc1cc(=O)oc2cc(C)cc(OCC(=O)NCc3ccccn3)c12	-1%	13%	·	·	·	·	9%	-18%
Cc1ccc(NC(=O)CSc2nc(=O)n(CCCN3CCOCC3)c3c2CCCC3)cc1	·	-2%	5%	·	-4%	·	-13%	-16%
COc1ccc(C)cc1S(=O)(=O)N(C)CC(=O)NC1CCCC1	9%	-11%	9%	-1%	-12%	-3.5%	·	12%
Cc1ccccc1CSCC(=O)Nc1ccccc1Br	-20%	-8%	·	·	·	·	2%	24%
COc1ccc(C(=O)n2nc(C)c(Br)c2C)cc1OC	-3%	-1%	1%[46.1 µM]	·	?	·	-13%	10%
O=C(COC(=O)c1ccc(Br)o1)NCc1cccs1	-9%	-12%	-9%	18%	3%	5.9%	-8%	-10%
O=C(O)Cn1cc2c(n1)CCCCC2	-5%	0%	3%	-17%	15%	-1.1%	11%	17%
C=CCOc1ccc2nc(NC(=O)OC)[nH]c2c1	-1%	-3%	?	-3%	?	-0.6%	10%	35%[activator]
COc1ccc(NC(=O)Nc2nnc(CC(=O)Nc3ccccc3)s2)cc1	-1%	-1%	·	·	·	·	13%	-14%
COc1cc(N)ccc1C(=O)O	3%	·	0%	3%	0%	4.5%	7%	8%
O=C(NCCN1CCC(Cc2ccccc2)CC1)C1CCN(S(=O)(=O)N2CCC3(CC2)OCCO3)CC1	·	-1%	-21%	·	?	·	-6%	?
O=S(Cc1ccc(Br)cc1)Cc1nnc(SCc2c(Cl)cccc2Cl)n1-c1ccccc1 (stereo not drawn)	26%	-8%	?	-7%	?	0.5%	-23%	28µM*
Fc1ccc(Nc2ncnc3ccccc23)cc1	-45%	-4%	26%	·	?	·	0%	23%
Cc1ccc(N/C=C(\C#N)S(=O)(=O)c2ccccc2)cc1	5%	-2%	?	·	?	·	0%	14%
CCCCC(=O)NC(NC(=O)CCCC)c1ccc(OCC(C)C)c(OC)c1	-1%	8%	23%	?	?	3.9%	2%	-16%
CCOC(=O)CNC(=O)CSc1nnc(-c2cccc(C)c2)n1-c1ccc(OC)cc1	25%	-13%	-1%	?	14%	5.6%	5%	-4%
O=C(c1ccccc1)N1N=C(c2ccccc2)CC1c1ccc2nccnc2c1 (stereo not drawn)	12%	-30%	1%	-5%	-4%	-6.8%	-12%	-16%
CCOC(=O)Cc1cc(=O)[nH]n(-c2ccccc2)c1=O	·	·	12%[46.1 µM]	·	15%[46.1 µM]	·	7%	13%
C[C@@]12C(=O)N(c3ccc(F)cc3)C(=O)N1[C@@H]1c3ccccc3OC[C@@H]1[C@H]2c1ccccc1	8%	-5%	·	·	·	·	-2%	?
CN=C1SC(CC(=O)Nc2sc(C)c(C)c2C(=O)OC)C(=O)N1C (stereo not drawn)	-10%	6%	-21%	?	-25%	0.0%	1%	·
CC(=O)NC12CC3CC(C1)CC(C(=O)Nc1c(C)n(C)n(-c4ccccc4)c1=O)(C3)C2	7%	3%	2%	·	0%	·	-1%	-16%
CCOC(=O)N1CCN(C(=O)COc2cccc3c2CCN(Cc2cccc(C)c2)C3=O)CC1	-8%	-3%	?	16%	·	0.5%	-15%	?
COC(=O)c1[nH]c2cc(OC)ccc2c1NC(=O)c1c(F)cccc1F	5%	1%	·	·	·	·	6%	12%
CC(=O)Nc1ccc(NC(=O)C2CCCN2C(=O)Nc2cccc(F)c2)cc1 (stereo not drawn)	4%	-1%	-1%	·	13%	·	5%	5%
Cc1ccc(OC(C)C(=O)Nc2ccc(S(=O)(=O)N3CCOCC3)cc2)cc1 (stereo not drawn)	0%	0%	-23%	·	-19%	·	-8%	?
O=C(O)C1CC=CCC1C(=O)Nc1ccccc1C(=O)N1CCN(c2ccc(Cl)cc2)CC1 (stereo not drawn)	10%	0%	?	·	-1%[46.1 µM]	·	-22%	-21%
Cc1cc(C)n(-c2ccc(C(=O)Nc3cccc(S(=O)(=O)N(C)C)c3)cc2)n1	-9%	8%	?	-6%	?	-2.6%	10%	22µM*
COc1cc([C@H]2[C@@H]3CCCC[C@]3(O)CCN2CC(=O)Nc2ccc(C)cc2)ccc1O	3%	-1%	-10%	0%	?	6.5%	-6%	3%
CCOc1ccc(C(=O)N2CCN(CCc3ccccc3)CC2)cc1OCC	-2%	1%	?	·	27%	·	-8%	-1%
Cc1cc(C)cc(NC(=O)CN2CCCN(S(=O)(=O)c3ccc(Br)s3)CC2)c1	1%	6%[6.58 µM]	-13%	2%	?	-4.4%	-3%	-21%
CN(Cc1ccc(F)cc1)C(=O)c1cccc(OC2CCN(C3CCCC3)CC2)c1	-2%	0%	20%[46.1 µM]	·	12%[46.1 µM]	·	9%	-14%

(listing goes on)
SMILES	NS1 inh	SARS PLP yeast	LASV entry inh	Cruzain inh noDet	MARV entry inh	Cruzain Triton	RE007 growth inh	StopGo reporter
CCN(CC)C(=O)c1[nH]cnc1C(=O)N[C@@H](Cc1ccccc1)C(=O)OC(C)(C)C	-10%	-2%	·	·	·	·	-6%	1%
CCOc1ccc(C(C)=O)cc1COC(=O)c1ccccc1C(=O)N(C)Cc1ccccc1	·	-2%	-1%	·	?	·	4%	-17%
C=CCn1c(C)cc(C(=O)COC(=O)[C@@H](NC(=O)c2ccccc2Cl)C(C)C)c1C	-47%	-18%	?	-8%	?	-21%	-22%	?
O=c1[nH]c(=O)n(Cc2ccco2)c(O)c1C=NCc1ccco1	15%	0%	-1%	-3%	22%	4.9%	3%	·
